Yeast UUG start – modulators of yeast start codon fidelity, primary screen, whole organism, S. cerevisiae, single point, plate reader; S. cerevisiae UUG-firefly luciferase reporter, luminescence/redox ratio; activity score, % at 18.7 µM; hit rate 0.13% among 350,000;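 active means replicate mean at a twofold rise or more, about +100% in these data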;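 further: firefly luciferase made from a UUG start codon reports start codon fidelity; reporter light over untreated wells divided by growth signal over untreated wells; some hits fall short of that in this replicate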
Rce1 inhib – yeast Rce1p protease inhibitors, primary screen, biochemical, fluorescence, cell-free homogeneous; yeast membranes, quenched prenylated peptide cleavage fluorescence; calls only; hit rate 0.27% among 290,000;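 active means fall in fluorescence gain of 50% or more versus controls, with final raw signal at or below 3038400; inconclusive means same 50% fall but final raw signal above 3038400; inactive means fall in fluorescence gain under 50%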;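 further: plate controls were neutral control wells for no effect and wells lacking membranes for full effect; tested at 10 µM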
Target sequence (Q03530 whole entry, looked up): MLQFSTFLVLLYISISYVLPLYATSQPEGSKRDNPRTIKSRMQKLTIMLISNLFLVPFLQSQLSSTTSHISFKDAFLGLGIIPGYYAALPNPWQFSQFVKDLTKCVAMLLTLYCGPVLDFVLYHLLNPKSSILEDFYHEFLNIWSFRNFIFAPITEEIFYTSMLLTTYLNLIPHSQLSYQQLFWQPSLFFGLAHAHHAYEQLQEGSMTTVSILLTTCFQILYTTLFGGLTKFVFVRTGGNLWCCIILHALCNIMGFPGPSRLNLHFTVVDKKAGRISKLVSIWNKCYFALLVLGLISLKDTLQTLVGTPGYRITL
HIV Env fusion – inhibitors of HIV-1 Env-driven cell-cell fusion, primary screen, HeLa-JRFL effector, CEM21 target cells, luciferase | inhibition, % at 12.3 µM | hit rate 1.1% among 360,000 | AID 651610, 2012;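 active means mean replicate inhibition score of at least 50 and every replicate individually at or above 50; inconclusive means only one of the two criteria met; inactive means mean below 50 and not all replicates reaching 50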;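 further: 0% = plate neutral controls and 100% = maraviroc near 300 nM; one replicate is shown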
PABP polyA inh – PABP poly(A) RNA binding inhibitors, primary screen, biochemical, fluorescence polarization, uHTS; hit rate 1% among 290,000; Polyadenylate-binding protein 1 (Homo sapiens), P11940; inhibition, % at 35 µM;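 active means 50% or more with normal probe brightness, or confirmed in later tests; inconclusive means above 50% with abnormal brightness, or retests that disagree; inactive means below 50% or failed in later tests; about a fifth of its hits are not listed in these tables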;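 further: calls also rest on retests at 20 µM and on dose response follow-up; controls were probe without protein and protein plus probe with vehicle; some compounds called inactive have numbers as strong as hits; many hits fall short of the cut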
CSC inhib – cancer stem cell viability inhibitors, primary screen, luminescence. cancer stem cell-like cells viability. inhibition, % at 7.5 µM. hit rate 1.1% among 300,000. AID 2717, 2010;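 active means mean at 75% or more and at least half the replicates too; inconclusive means mean and replicates disagree; tested in HMLE shEcad cells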;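 further: 0% = median of negative and 100% = median of positive control wells; the first replicate is given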
MT1-MMP act inh – blockers of MT1-MMP proenzyme processing, primary screen, HT1080 RFP-PRO-GFP cells, GFP/RFP fluorescence; Matrix metalloproteinase-14 (Homo sapiens), P50281; GFP/RFP ratio fluorescence, overnight; percent of plate control window, DMSO zero; AID 651647, 2012; GFP/RFP ratio change, % at 20 µM; hit rate 0.061% among 360,000;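 active means GFP/RFP ratio change of at least 30% with cell ATP level not reduced by more than half and red fluorescence within 50% of control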; further: strong numbers were not always called active
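Material: RFP-PRO-GFP reporter HT1080 cells. Dosing: single-point 20 µM compound, 1% DMSO. Controls: DMSO and RFP-L50D-GFP cell wells. Timing: cells overnight before dosing, compound overnight, 37 °C, 5% CO2. Measure: GFP/RFP fluorescence ratio.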
eIF4H FP inh – human eIF4H binding inhibitors, primary screen, translation initiation inhibitor project, biochemical, uHTS, fluorescence polarization; eIF4H fluorescence polarization binding assay; inhibition, % at 35 µM; hit rate 0.94% among 290,000; AID 2012, 2009;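 active means 50% or more with normal probe brightness, or confirmed in later tests; inconclusive means above 50% with abnormal brightness, or retests that disagree; inactive means below 50% or failed in later tests; about a fifth of its hits are not listed in these tables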;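 further: calls also rest on retests at 20 µM and on dose response follow-up; 0% = protein and probe with vehicle and 100% = probe without protein; strong numbers were not always called active; many hits fall short of the cut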
PABP polyA inh retest – recorded beside PABP polyA inh, whose call it bears; inhibition, %; compound at 20 µM; confirmation repeats;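 mean of two retest wells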
MT1-MMP act inh RFP – also measured in MT1-MMP act inh; calls as there; RFP signal change, %; measured here: RFP expression control read;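 0 = vehicle wells; hits needed this value within 50% of zero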
Numbers without * were called inactive; i = inactive; u = inconclusive; x = not tested or not shown; + = active, no number.

SMILES | Yeast UUG start | Rce1 inhib | HIV Env fusion | PABP polyA inh | CSC inhib | MT1-MMP act inh | MT1-MMP act inh RFP | eIF4H FP inh | others
Cc1ccc(-c2cc(Cc3ccc(N(C)C)cc3)c(=O)[nH]n2)cc1 | -6 | i | -17 | 10 | -5 | 6 | -3 | -14
Cc1ccc2nc(N=C(N)N)nc(C)c2c1 | 1 | i | 5 | 1 | 8 | -13 | -16 | 8
O=C(NCc1nnc2c(C(F)(F)F)cc(Cl)cn12)C1CCCC1 | -8 | i | 0 | 5 | -9 | -1 | 0 | -4
CC[N+](C)(CC)CC(O)COCC1COc2ccccc2O1 (stereo unspecified) | -8 | i | -11 | -3 | -6 | -2 | -1 | -6
COc1ccc(Br)c(C(=O)OCC(=O)N2CCc3ccccc32)c1 | -13 | x | 6 | x | -23 | 5 | 0 | x
O=C1CC(c2ccc(F)cc2)CC(O)=C1C1NCCc2ccccc21 (stereo unspecified) | -14 | i | x | -1 | -23 | 2 | 2 | -1
COc1ccccc1NC(=O)COc1ccc(C(=O)NCc2ccccc2)cc1OC | 1 | x | x | x | 12 | 8 | -6 | x
Cc1cc(S(=O)(=O)N2CCCc3ccccc32)ccc1-n1cnnn1 | -13 | i | -19 | -11 | -7 | 0 | 1 | 4
CN(CC(=O)Nc1ccc2c(c1)OCO2)CC(=O)Nc1ccc(F)c(F)c1F | -8 | x | -4 | x | -15 | -3 | -1 | x
Cc1ccc(/C=N/NC(=O)C(C)NC(=O)c2ccccc2)cc1 (stereo unspecified) | x | i | -1 | 5 | -8 | 0 | 6 | -8
COCCOCCn1c(CCCO)nc2ccccc21 | -18 | i | x | -8 | 2 | 1 | 8 | 2
CCN(CC)C(=O)c1ccc2sc([C@@H]3O[C@H](CO)[C@H](O)[C@H](O)[C@H]3O)nc2c1 | -22 | x | 11 | x | x | 1 | 5 | x
COc1ccc(OCC(=O)NCCc2ccc(S(N)(=O)=O)cc2)cc1 | -20 | i | 32 | 3 | -19 | 2 | 3 | -3
CN(C)S(=O)(=O)c1ccc(N2CCOCC2)c(C(=O)NCc2ccc3c(c2)OCO3)c1 | -8 | x | -14 | x | -6 | -1 | 2 | x
CCOC(=O)c1ccc(N2N=C(C)/C(=C/C=C/c3ccco3)C2=O)cc1 | -12 | i | 7 | 3.0* | 2 | -1 | 2 | u | PABP polyA inh retest=96*
CC(=O)Nc1ccc(Cc2ccc3[nH]c(=O)cc(C)c3c2)cc1 | x | i | x | 7 | 2 | x | x | 8
CC(C)Cc1nc2oc3c(NCc4cccnc4)ncnc3c2c2c1CCC2 | -15 | i | -9 | -9 | -14 | 13 | 3 | -3
CC(C)C(=O)NC(=S)Nc1sc2c(c1C(N)=O)CCCC2 | -12 | i | -20 | 15 | 12 | -5 | 0 | -1
CCc1nc(Nc2ccc(OC)cc2OC)c2oc3ccccc3c2n1 | -5 | i | 10 | -1 | 37 | -1 | -8 | -8
O=[N+]([O-])c1ccc(Cl)c(S(=O)(=O)NCCc2ccccn2)c1 | -9 | x | x | x | 11 | 3 | 2 | x
CC(C)CCn1c(N2CCc3ccccc3C2)nc2c1c(=O)[nH]c(=O)n2C | -17 | i | -38 | 3 | 2 | 3 | -1 | 12
CC1CCN(CCCOc2ccc(Br)cc2Cl)CC1 | x | i | 0 | -12 | 49 | 1 | 5 | 2
O=[N+]([O-])c1cccc(CSc2nnc3ccccn23)c1 | x | i | -4 | 2 | -8 | 2 | 7 | 5
S=c1[nH]nc(Cn2cnc3ccccc32)n1-c1ccccc1Cl | -7 | i | 2 | 0 | -7 | -2 | 2 | 9
CN(C(=O)CC1C(=O)NCCN1Cc1c(F)cccc1Cl)C1CCOCC1 (stereo unspecified) | 0 | i | 0 | -5 | 1 | -9 | -3 | -9

Reprinted from the part before: 4 entries, then new ones.
SMILES | Yeast UUG start | Rce1 inhib | HIV Env fusion | PABP polyA inh | CSC inhib | MT1-MMP act inh | MT1-MMP act inh RFP | eIF4H FP inh | others
CC1CCN(CCCOc2ccc(Br)cc2Cl)CC1 | x | i | 0 | -12 | 49 | 1 | 5 | 2
O=[N+]([O-])c1cccc(CSc2nnc3ccccn23)c1 | x | i | -4 | 2 | -8 | 2 | 7 | 5
S=c1[nH]nc(Cn2cnc3ccccc32)n1-c1ccccc1Cl | -7 | i | 2 | 0 | -7 | -2 | 2 | 9
CN(C(=O)CC1C(=O)NCCN1Cc1c(F)cccc1Cl)C1CCOCC1 (stereo unspecified) | 0 | i | 0 | -5 | 1 | -9 | -3 | -9
CC(NC(=O)c1cc(=O)[nH]c2ccccc12)c1ccc(F)cc1F (stereo unspecified) | -20 | i | -5 | 12 | -9 | -1 | -2 | 4
O=C(CNS(=O)(=O)c1ccc(Br)s1)Nc1ccc2c(c1)OCCO2 | -11 | i | 17 | 0 | 3 | 1 | 1 | 6
Cc1c(Cl)cccc1NC(=S)NC(=O)CCN1C(=O)c2ccccc2C1=O | -10 | i | -7 | 5 | -33 | 1 | 0 | -8
O=c1cc(Nc2cccc(Br)c2)[nH]c(=O)[nH]1 | x | i | 7 | -9 | -8 | -1 | -2 | 1
COc1ccc(N2C(=O)CC(Cc3ccccc3OC)C2=O)cc1 (stereo unspecified) | -8 | i | -1 | -6 | -7 | -2 | 1 | -4
O=C1CCc2cc(S(=O)(=O)N3CCN(c4ccc(F)cc4)CC3)cc3c2N1CC3 | x | i | x | x | 12 | -2 | 2 | x
Cc1nc2ccccc2n1CC(O)COc1ccccc1Cl (stereo unspecified) | -11 | i | -11 | 0 | 2 | 1 | -20 | -2
CC(C)(C)C(=O)CN1C(=O)NC2(CCc3ccccc32)C1=O (stereo unspecified) | -9 | i | 2 | -2 | 11 | -1 | 1 | -5
O=C(Nc1ccc(N2C(=O)C3C4C=CC(C4)C3C2=O)cc1)Nc1nncs1 (stereo unspecified) | -19 | i | -1 | -4 | -9 | -1 | 4 | -1
Cc1ccc(F)cc1NC(=O)N1CCNC(=O)C1CC(=O)Nc1cc(Cl)ccc1Cl (stereo unspecified) | -2 | i | 6 | -4 | -1 | 3 | 1 | -11
O=C(NCCc1ccccc1)C1CCCN(S(=O)(=O)c2cccs2)C1 (stereo unspecified) | -5 | i | 7 | -18 | -7 | 0 | 1 | -6
Cc1ccc(C(=O)NCCc2ccc(S(N)(=O)=O)cc2)cc1[N+](=O)[O-] | x | i | 4 | 4 | -1 | 4 | 9 | -5
CCc1ccccc1N1CC(C(=O)O)CC1=O (stereo unspecified) | 3 | i | x | -1 | -1 | 1 | 0 | -1
O=C(O)c1cc([N+](=O)[O-])c(Nc2cccc3ccccc23)c([N+](=O)[O-])c1 | 3 | i | 2 | 0 | -12 | 10 | 5 | -17
CC1CCC2C(=O)N(c3cccc(OS(=O)(=O)c4ccccc4)c3)C(=O)C2C1 (stereo unspecified) | 4 | i | x | -2 | x | 3 | 1 | -5
COc1cccc(/C=C2\N=C(C3CCCCC3)OC2=O)c1OC | x | i | -9 | -2 | -14 | -5 | 1 | -14
CCCc1cc(C(=O)NCc2ccc(OC)cc2)no1 | -10 | i | 85* | 1 | 0 | 7 | 3 | -4
Cc1ccc(-n2c(=O)c(C#N)cc3c(=O)n4cccc(C)c4nc32)cc1 | -8 | i | 9 | 1 | -4 | 3 | 2 | 8
O=C(NNS(=O)(=O)c1ccc(F)cc1)c1ccccc1 | -17 | i | 4 | 0 | -7 | 0 | 8 | 2
CCN(CC)S(=O)(=O)c1ccc(N2CCN(c3ccccc3O)CC2)nc1 | 8 | i | 8 | 3 | 24 | -4 | -22 | 6
Cn1c(=O)c2c(-c3ccc(C(C)(C)C)cc3)n(N3CCOCC3)cc2n(C)c1=O | -16 | i | x | 0 | -5 | -2 | -1 | 7
Cc1ncccc1C(=O)N1CCCC(c2cc(C(=O)Nc3ccc(C(C)(C)C)cc3)no2)C1 (stereo unspecified) | 14 | x | 21 | x | x | -1 | -18 | x
CCOc1ccc(-n2nc(C(=O)N3CCN(CC)CC3)c3ccccc3c2=O)cc1 | -5 | i | -12 | 3 | x | 6 | 3 | 6
COc1cc2c(cc1O)[C@@H]1Cc3cc(O)c(OC)cc3[C@H](C2)N1C | 5 | i | 24 | -3 | -10 | -4 | 0 | 6
CCOC(=O)c1c(C)[nH]c(C(=O)COC(=O)CNC(=O)c2ccc(Cl)cc2Cl)c1C | 1 | i | -189 | 14 | -5 | 4 | 3 | -8
The listing continues:
SMILES | Yeast UUG start | Rce1 inhib | HIV Env fusion | PABP polyA inh | CSC inhib | MT1-MMP act inh | MT1-MMP act inh RFP | eIF4H FP inh | others
Nc1ccc2oc(-c3cccc4ccccc34)nc2c1 | -25 | i | x | -4 | 23 | 3 | -1 | -3
COc1cccc2[nH]c3c(N4CCN(Cc5ccc6c(c5)OCO6)CC4)ncnc3c12 | x | + | x | -3 | -2 | x | x | 6
O=C(NCc1nnc(SCC(=O)N2CCCC2)o1)c1ccccc1F | -13 | i | 6 | -4 | -9 | 0 | -1 | -3
COc1ccc(-c2c(-c3cc(OC)cc(OC)c3)n(C)c3ccc(-c4ccc(OC)cc4F)cc23)cc1 | -3 | x | 13 | x | -5 | 1 | 2 | x
Cc1ccc(N2CC(C(=O)Nc3nc4ccc(S(C)(=O)=O)cc4s3)CC2=O)cc1C (stereo unspecified) | -18 | i | 1 | -10 | -10 | -5 | 1 | -2
Cc1nc2c(-c3ccccc3)c[nH]n2c(=O)c1Cc1ccccc1 | -13 | i | 21 | 1 | 13 | -3 | -4 | 13
COc1ccc(C(O)c2nc(-c3ccc4c(c3)OCO4)cs2)cc1 (stereo unspecified) | -21 | x | -6 | x | x | -6 | -17 | x
COc1cccc(CNc2nc3cc(-c4ccccc4)sc3c(=O)n2C)c1OC | -21 | x | 66* | x | x | 1 | -25 | x
CCC(=O)N1CCC2(CC1)Oc1ccc(F)cc1C(=O)C21CC(c2cccnc2)=NO1 (stereo unspecified) | -5 | i | -46 | -2 | -9 | 2 | 6 | -1
CC1(C)CC(=O)c2sc(NS(=O)(=O)c3ccccc3)nc2C1 | x | i | -9 | -4 | -1 | -1 | 1 | -2
Clc1ccc(SCc2cc(N3CCOCC3)nc(-c3ccccn3)n2)cc1 | x | i | 19 | -6 | 10 | 7 | 2 | 6
COC(=O)c1cn(C(=O)c2ccc(F)cc2)c2ccccc12 | -6 | i | 0 | -4 | -8 | -1 | 5 | 0
Cc1c(CC(=O)N[C@@H](C)C(=O)O)c(=O)oc2cc3occ(-c4ccccc4)c3cc12 | x | i | -14 | 20 | -3 | 5 | -1 | -4
CCc1ccccc1NC(=O)/C(C#N)=C/c1ccc(Sc2ccccc2)o1 | x | i | 3 | -1 | 31 | -2 | -2 | 16
CC1(C(=O)NCCN2CCOCC2)C=CC2(CCCCC2)N1C(=O)c1ccccc1 (stereo unspecified) | -9 | i | -3 | 4 | 2 | -3 | 3 | -2
COC(=O)[C@@H]1OC(=O)[C@H]2O[C@@]23[C@@]1(C)CC[C@@H]1[C@@]2(C)C=CC(=O)OC(C)(C)[C@@H]2CC(=O)[C@]13C | -7 | x | -13 | x | -15 | -3 | 6 | x

Screens: PubChem BioAssay, several laboratories

The list is partial; rates above refer to the full screens.
